Bioassay records from PubChem.
S aureus helic: blocks Staphylococcus aureus DNA helicase. purified S. aureus helicase, fluorescence unwinding assay; about half of the hits fall short of the stated cut. actives 0.05% (n = 120,000). AID 485395. inhibition, %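 (tested at about 80 µM)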;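 active means both duplicates at 50% or more, or one of them with a favoured structure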;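 further: 0% = mean of negative control wells and 100% = mean of positive control wells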
MgrA-DNA mod: alters Staphylococcus aureus MgrA binding to DNA. AID 602314. actives 0.13% (n = 84,000). inhibition, %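 (about 10 µg/mL by stock and volumes)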. fluorescence polarization;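 active means above 50% in either of two replicates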;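 further: 0% = protein plus DNA without compound and 100% = DNA alone without protein; higher means less MgrA bound to DNA so lower polarization; one replicate is shown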
Numbers without * were called inactive; x = not tested or not shown; & = joins results of further samples.

SMILES	S aureus helic	MgrA-DNA mod
CCn1c(=S)[nH]c2cc3ccccc3cc2c1=O	-4.0	x
COc1cc(C(=O)N2Cc3ccccc3CC2C)cc(OC)c1OC (stereo unspecified)	-17.0	x
CCOC(=O)N1CCN(C(=O)c2ccc3c(c2)NC(=O)/C(=C/c2ccccc2)S3)CC1	-2.0	x
O=C(O)CNS(=O)(=O)Cc1ccccc1	-7.0	x
CCS(=O)(=O)CCn1c([N+](=O)[O-])cnc1C	x	-1.4&1.4
Cc1noc(C)c1CSc1ccc(Br)cc1	x	1.6
C=CCNC(=O)CSc1nc2ccccc2o1	2.0	x
CCOC(=O)C(NC(=O)c1nn(-c2ccccc2)nc1C)C(=O)OCC	x	-2.0
COCCn1c(=NC(=O)c2c(F)cccc2F)sc2cc(OC)ccc21	1.0	x
C/C(=N\O)C(=O)OC1CC(C)CCC1C(C)C (stereo unspecified)	16.0	-4.8
C=CCn1c(=O)c(C(=O)Nc2ccc(I)cc2)c(O)c2ccccc21	x	-1.2
CN1C2CC(OC(=O)[C@H](CO)c3ccccc3)C[C@H]1[C@H]1OC21 (stereo partly specified)	x	2.7
O=S(=O)(c1ccc(N=C=S)cc1)N1CCOCC1	11.0	x
COc1cc(OC)c(NC(=O)C2CCCN(c3nnc(-n4cccc4)s3)C2)cc1Cl (stereo unspecified)	0.0	x
CN1C(=O)CSc2ccc(NC(=O)N3CCC(N4CCCCC4)CC3)cc21	14.0	x
CNC(=S)Nc1cc(C)ccn1	-10.0	x
CNC(=O)c1ccc(N2CCSc3ccccc32)s1	3.0	x
Cc1c(C)c(C)c(Br)c(C)c1C	x	-1.4
N#Cc1ccc(S(=O)(=O)N2CCN(c3cccc4[nH]ccc34)CC2)cc1	x	-0.4
O=c1ccnc(S/C=C/c2ccccc2)[nH]1	-6.0	x
Cc1cccc(C)c1NC(=O)Cn1c(S(=O)(=O)CC(N)=O)nc2ccccc21	5.0	-0.2
Cc1ccccc1-c1nnc(C2CCN(S(=O)(=O)c3ccc4c(c3)CCCC4)CC2)o1	12.0	x
Cc1ccc(Cl)c(NC(=O)COC(=O)c2ccncc2)c1Cl	-22.0	-0.4
Cc1ccnc(SCC(=O)c2ccc(Br)cc2)n1	11.0	-0.8
N#Cc1cn(CCCOc2ccccc2Cl)c2ccccc12	-3.0	1.0
O=C1CN(C(=O)Cc2ccsc2)c2ccccc2N1	-44.0	x
O=C(CSc1nc2[nH]ncc2c(=O)n1-c1ccccc1)c1ccc2c(c1)OCCO2	9.0	-2.6
CCN(CC)c1nc(C)nc2sc(C(=O)Nc3cc(Cl)ccc3OC)c(C)c12	7.0	0.6
CC(=O)Nc1ccc(S(=O)(=O)NC2CCCCC2C)cc1 (stereo unspecified)	8.0	2.8
CCn1c(Nc2ccccc2Cl)nc2ccccc21	10.0	-2.3
NNC(=O)c1cn2cc(C(F)(F)F)cc(Cl)c2n1	21.0	x
COc1ccc(N2COc3cc4c(cc3C2)OCO4)cc1	24.0	x
Fc1ccccc1Cn1nnc2ccccc21	-6.0	0.7
COc1ccc(-c2cc3c(=O)n(CC(=O)N(C)Cc4ccccc4)nc(C)n3n2)cc1	7.0	x
O=C(O)CCNS(=O)(=O)c1ccccc1C(F)(F)F	5.0	-2.8
CCN(CC)C(=O)c1sc(NC(=S)NCCn2cc(Br)cn2)c(C(=O)OC)c1C	9.0	2.0
CCCn1c(C)cc(/C=C(\C#N)C(N)=S)c1C	-14.0	x
COc1ccc(COCC(O)CN2CCC(C(N)=O)CC2)cc1 (stereo unspecified)	x	1.3
N#Cc1cnn2c(-c3ccc(Cl)c(Cl)c3)ccnc12	x	2.2
O=C(NC1CCCCC1)NC1(C(=O)N2CCN3CCCC3C2)CCCCC1 (stereo unspecified)	5.0	-2.3
CCOc1ccc(-c2nc(CNCCN3CCOCC3)cs2)cc1OC	17.0	x
O=C(CSc1ncnc2ccccc12)Nc1ccccc1C(F)(F)F	-27.0	x
O=C(CSc1nc2cc(Cl)ccc2c(=O)n1Cc1ccco1)c1ccc(Cl)s1	0.0	x
Cc1cccc(NC(=O)c2cccc(N3C(=O)CCC3=O)c2)c1	3.0	6.8
O=C(OCc1ccccc1)c1ccccn1	-9.0	-1.6
Cc1ccc(N(CC(O)CN2C(=O)NC(C)(C)C2=O)S(=O)(=O)c2ccccc2)cc1 (stereo unspecified)	-5.0	-0.6
c1cncc(-c2nn[nH]n2)c1	-19.0	x
COCCNC(=O)c1ccc(NC(=O)c2cccc(OC)c2)cc1	23.0	0.9

Molecules listed so far that have an NH in an aromatic ring (five):
SMILES	S aureus helic	MgrA-DNA mod
CCn1c(=S)[nH]c2cc3ccccc3cc2c1=O	-4.0	x
N#Cc1ccc(S(=O)(=O)N2CCN(c3cccc4[nH]ccc34)CC2)cc1	x	-0.4
O=c1ccnc(S/C=C/c2ccccc2)[nH]1	-6.0	x
O=C(CSc1nc2[nH]ncc2c(=O)n1-c1ccccc1)c1ccc2c(c1)OCCO2	9.0	-2.6
c1cncc(-c2nn[nH]n2)c1	-19.0	x

Next section
SMILES	S aureus helic	MgrA-DNA mod
N#Cc1ccc(OCc2ccc3nonc3c2)cc1	x	-1.4
C/C(=N\NC(N)=O)C1(C)N(O)C(C)(C)C(c2ccco2)=[N+]1[O-] (stereo unspecified)	1.0	x
COc1ccccc1C1CCN(Cc2ccc3ccccc3c2)CC1	x	-0.2
O=S(=O)(NC1CCCCC1)c1ccc(N2CCOCC2)nc1	x	-2.0
O=C(Nc1cc(=O)c2ccccc2o1)OCc1ccccc1	-9.0	4.2
CCCCNC(=O)c1ccc2c(c1)NC(=O)CN2C	10.0	x
Cc1ccccc1-c1nc2cc(Cl)ccc2c(=O)o1	x	-1.4
COc1ccc(NC(=S)Nc2c(C)cccc2C)cc1OC	x	2.0
Cc1ccc(OCc2nc(SCC(=O)c3ccc4c(c3)OCO4)n[nH]2)cc1	9.0	x
CCCNC(=O)c1ccc(-c2ccccc2)s1	-24.0	x
C[C@H](NC(=O)Cc1cccc2ccccc12)C(=O)N1CCOCC1	16.0	x
CCC1CCCCN1C(=O)c1cn(C)c(=O)c2cc(OC)c(OC)cc12 (stereo unspecified)	34.0	x

Some of these compounds in order of count of non-hydrogen atoms, lowest first.
SMILES	S aureus helic	MgrA-DNA mod
N#Cc1ccc(OCc2ccc3nonc3c2)cc1	x	-1.4
C/C(=N\NC(N)=O)C1(C)N(O)C(C)(C)C(c2ccco2)=[N+]1[O-] (stereo unspecified)	1.0	x
C[C@H](NC(=O)Cc1cccc2ccccc12)C(=O)N1CCOCC1	16.0	x
COc1ccccc1C1CCN(Cc2ccc3ccccc3c2)CC1	x	-0.2
CCC1CCCCN1C(=O)c1cn(C)c(=O)c2cc(OC)c(OC)cc12 (stereo unspecified)	34.0	x
Cc1ccc(OCc2nc(SCC(=O)c3ccc4c(c3)OCO4)n[nH]2)cc1	9.0	x

The results go on.
SMILES	S aureus helic	MgrA-DNA mod
NC(=O)c1c(Nc2ccccc2)n[nH]c1N	-16.0	-0.6
Cc1oc(C(C)(C)C)cc1C(=O)N1CCN(c2ncccc2C(F)(F)F)CC1	x	-0.7
CC1(C)C2CC=C(/C=N/NC(=O)c3cccnc3)C1C2 (stereo unspecified)	13.0	x
N#CC(C#N)=c1s/c(=C\c2ccc(-c3ccccc3Cl)o2)c(=O)n1-c1ccccc1	-240.0	x
CCN(C(=O)c1cnc(N2CCN(c3ncccn3)CC2)c2ccccc12)c1cccc(Cl)c1	7.0	-1.2
CCCCn1nc(C(=O)Nc2nc(SC)ns2)ccc1=O	-9.0	x
CC(C)NC(=O)c1ccc(COCC(F)(F)F)cc1	4.0	0.5
C/C(=N\NC(=O)c1sc2ccccc2c1Cl)c1ccco1	x	2.6
CCCCc1nnc(NC(=O)c2c(OC)cccc2OC)s1	15.0	8.0
CC(=O)N1CC(C)=C(C#N)C1O (stereo unspecified)	x	4.0
CCSc1nnc2c(n1)OC1(CCCC1)Nc1ccccc1-2	-107.0	x
Cc1cc2cc(C(=O)O)ccc2o1	-18.0	2.0
Cc1c(C(=O)NNc2ncnc3sc4c(c23)CCCC4)oc2ccccc12	5.0	x
COC(=O)/C(C#N)=C(\C)N	-10.0	x
CCc1nnc(NC(=O)C(CC(C)C)N2C(=O)c3ccccc3C2=O)s1 (stereo unspecified)	15.0	0.3
COC(=O)c1cc(OC)c(OC)cc1NC(=O)c1ccc(C)cc1	x	-1.7
Cc1ccc(CN2C(=O)COc3cc(NC(=O)c4ccncc4)ccc32)cc1	-4.0	-2.6
COc1ccc(C2C(C#N)=C(SC)NC3=C2C(=O)CC(C)(C)C3)cc1 (stereo unspecified)	12.0	x
CCOC(=O)c1c(NC(=O)c2cc3cc(Br)ccc3oc2=O)sc(C(C)=O)c1C	x	-1.6
O=C(NCCc1ccccc1)c1ccccc1CN1C(=O)c2ccccc2C1=O	3.0	1.0
Cc1cc(C(=O)COc2ccc(-n3ccnc3)cc2)c(C)n1-c1ccc2c(c1)OCO2	3.0	x
COc1ccc(-c2noc(N3CCC(C(=O)N(C)c4ccccc4)CC3)n2)cc1	14.0	0.8
CSc1cccc(N2CC(C(=O)N3CCCCC3C(N)=O)CC2=O)c1 (stereo unspecified)	14.0	x
NS(=O)(=O)c1ccc(CNC(=S)NC2CCCC2)cc1	6.0	0.6
COc1ccc(/C=C2\Sc3ccccc3NC2=O)cc1	-5.0	-1.9
Cc1cc2nc(N)nc(N)n2n1	22.0	x
COCCN=Cc1c(NCCOC)nc2ccccn2c1=O	0.0	4.4
COc1ccc(NC(=O)C2=CC(c3cccc(OC)c3)=NS(=O)(=O)N2C)cc1	2.0	x
CCN(CC)S(=O)(=O)c1ccc(C(=O)Nc2ccccc2Cl)cc1	-15.0	0.0
C=CCNC(=O)C(C)N1c2cccc3cccc(c23)S1(=O)=O (stereo unspecified)	13.0	1.6
CCOC(=O)c1c(NC(=O)CSc2nnc(-c3cccnc3)n2N)sc(C(=O)N(C)C)c1C	-20.0	x
CC1CCCCN1C(=O)CCS(=O)(=O)c1ccc2c(c1)NC(=O)CO2 (stereo unspecified)	-25.0	x
Cc1cc(/C=N/NC(=S)NC(C)C)c(C)n1CC(C)C	21.0	x
COc1cc(C2C3=C(CC(C)(C)CC3=O)OC3=C2C(=O)CC(C)(C)C3)c(Br)cc1OCC(=O)O	x	3.4
Cc1nc2ccccc2n1CCNC(=O)NC1CCCCC1	11.0	x
CCOc1ccc(-c2c(C#N)c(N)nc(SCC(=O)OC)c2C#N)cc1	x	2.3
CS(=O)(=O)N1CCN(C(=O)Cc2ccc(-c3ccccc3)cc2)CC1	11.0	2.6
CCOc1cccc(=O)c2c(C)n(Cc3ccccc3)c(C)c12	-15.0	x
N#Cc1ccccc1N1CCOCC1	x	-0.9
NC1=NC(=O)C(CC(=O)Nc2cccc(C(F)(F)F)c2)S1 (stereo unspecified)	10.0	1.2
C=CCC(Nc1ccccc1C)c1ccc(Cl)cc1 (stereo unspecified)	10.0	-1.9
Cc1cc(C(=O)COC(=O)c2ccc(S(=O)(=O)N3CCCCC3)cc2)c(C)n1CC1CCCO1 (stereo unspecified)	-10.0	x
COc1ccccc1C1=NOC(C(=O)NCCCn2ccnc2)C1 (stereo unspecified)	-21.0	x
CC1CC(C)CN(C(=O)C(C)Sc2nnc(N)s2)C1 (stereo unspecified)	-3.0	x
O=C(Nc1ccc(C(F)(F)F)cc1)C1CCc2ccccc2O1 (stereo unspecified)	x	6.0
CCn1c(Cc2ccccc2)nnc1SCC(=O)N(C)C1CCCCC1	6.0	-2.2
CCC(Sc1nnc2c3ccccc3n(C)c2n1)C(=O)Nc1ccc(Cl)cn1 (stereo unspecified)	11.0	x
CC1=C(c2ccccc2)S(=O)(=O)NC1=NCCCN1CC(C)CC(C)C1 (stereo unspecified)	14.0	x
CCc1nn(CC(=O)NCCc2ccc(OC)cc2OC)c(=O)c2cc3sc(C)cc3n12	16.0	x
O=C(O)C1CCCN1c1ncnc2ccccc12 (stereo unspecified)	-7.0	0.1
Cc1cc(-c2ccccc2)oc2cc3ccccc3c1-2	x	-0.2
CCN(CC)c1nc2ccccc2n1Cc1ccc(Cl)cc1	-16.0	x
CCc1nnc(NC(=O)c2c(OC)cccc2OC)s1	16.0	x
Nc1ccc(S(=O)(=O)c2ccccc2)c(Cl)c1	x	7.0
CCOC(=O)c1cccc2c1-c1ccccc1/C2=N/O	4.0	0.9
CCc1ccc(/C=C2\SC(=S)N(CCCC(=O)NC3CCCC3)C2=O)cc1	-2.0	x
COc1ccccc1C(=O)Nc1c2c(nn1-c1ccc(Oc3ccccc3)cc1)CSC2	4.0	2.3
N#CC1=C(N2CCCCC2)c2cc3c(n2C1=O)CCCC3	-2.0	-2.4
Cc1cc(C(=O)CSc2nncn2C)c(C)n1CCc1ccc(Cl)cc1	8.0	x
O=C(CCCCc1nc2ccccc2s1)Nc1ccccc1	-2.0	-0.4

The list continues.
SMILES	S aureus helic	MgrA-DNA mod
COc1ccccc1N1CCN(c2ncc(C(=O)Nc3cc(OC)c(OC)c(OC)c3)c3ccccc23)CC1	6.0	x
CCN1CCCC1CNC(C)C(=O)NC1CCCC1 (stereo unspecified)	10.0	x
CSc1cccc(NC(N)=O)c1	x	-0.9
CC(C)(C)OC(=O)CN1C(=O)S/C(=C/c2cccs2)C1=O	4.0	-0.2
NC(=O)C1CCN(c2nc3c(S(=O)(=O)c4ccc(Br)cc4)nnn3c3ccccc23)CC1	-20.0	x
Fc1cccc(Cl)c1CSc1nnc(-c2c[nH]c3ccccc23)o1	-4.0	x
Cc1cc(C)n2c(Nc3c(C)cccc3C)c(-c3ccc(C)o3)nc2n1	9.0	x
CC1=CC(=O)N(c2ccc(C3CCCCC3)cc2)C1=O	-19.0	x
O=C1CCC(N2C(=O)c3ccccc3C2=O)C(=O)N1 (stereo unspecified)	x	-1.1&-0.6&-0.3

Four entries picked at random from those above, as already listed:
SMILES	S aureus helic	MgrA-DNA mod
CCN(CC)c1nc2ccccc2n1Cc1ccc(Cl)cc1	-16.0	x
Cc1cc2cc(C(=O)O)ccc2o1	-18.0	2.0
Cc1ccccc1-c1nnc(C2CCN(S(=O)(=O)c3ccc4c(c3)CCCC4)CC2)o1	12.0	x
COc1ccc(NC(=O)C2=CC(c3cccc(OC)c3)=NS(=O)(=O)N2C)cc1	2.0	x

Some of the compounds tested. The share of hits here may be higher or lower than overall.
